# Screens as filed in PubChem.
# RanGTP-Impb inh – disruptors of Ran-importin-beta complex formation – biochemical, FRET, CFP-Ran, YFP-importin-beta, homogeneous, primary screen; cell-free CFP-Ran/YFP-importin-beta FRET ratio; inhibition, % (concentration not given with the values); 1.1% of 300,000 active;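 active means most replicates above 15%; inconclusive means exactly half above 15%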;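 further: 0% = DMSO wells and 100% = Ran loaded with GDP instead of GTP; wells of about 40 µL received 100 nL stock; the first replicate is given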
# T cruzi repl – blocks replication of Trypanosoma cruzi | AID 1885 | inhibition, % (no concentration beside the values) | 1.4% of 300,000 active | T. cruzi beta-gal in NIH3T3, luminescence, 90 h;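 active means mean inhibition across valid replicates above about 55%, limit read from the data; inconclusive means mean below that limit but half or more replicates reach it; inactive means mean below it, under half of replicates reach it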;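 further: signal also drops with host cell toxicity which is not excluded here; 0% = plate median of DMSO wells and 100% = zero luminescence signal; higher percent means less beta-gal luminescence so fewer parasites; stock transfer was 50 nL into about 50 µL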
# AF4-AF9 inh – inhibitors of human MLL-AF4/AF9 interaction. AlphaScreen, biotin-AF4 peptide binding to FLAG-AF9. inhibition, % at 10 µM. 0.47% of 350,000 active. AID 651704;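 active means every replicate reaching a set inhibition limit, whatever the replicate mean, cut at about 25% in these data; inconclusive means mean inhibition reaches that limit but some replicates miss it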;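 further: 0% = plate neutral control median and 100% = total signal loss; the record names both 10 and 1 µM as test concentration; the first replicate is given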
# Target sequence (P42568 whole entry, looked up): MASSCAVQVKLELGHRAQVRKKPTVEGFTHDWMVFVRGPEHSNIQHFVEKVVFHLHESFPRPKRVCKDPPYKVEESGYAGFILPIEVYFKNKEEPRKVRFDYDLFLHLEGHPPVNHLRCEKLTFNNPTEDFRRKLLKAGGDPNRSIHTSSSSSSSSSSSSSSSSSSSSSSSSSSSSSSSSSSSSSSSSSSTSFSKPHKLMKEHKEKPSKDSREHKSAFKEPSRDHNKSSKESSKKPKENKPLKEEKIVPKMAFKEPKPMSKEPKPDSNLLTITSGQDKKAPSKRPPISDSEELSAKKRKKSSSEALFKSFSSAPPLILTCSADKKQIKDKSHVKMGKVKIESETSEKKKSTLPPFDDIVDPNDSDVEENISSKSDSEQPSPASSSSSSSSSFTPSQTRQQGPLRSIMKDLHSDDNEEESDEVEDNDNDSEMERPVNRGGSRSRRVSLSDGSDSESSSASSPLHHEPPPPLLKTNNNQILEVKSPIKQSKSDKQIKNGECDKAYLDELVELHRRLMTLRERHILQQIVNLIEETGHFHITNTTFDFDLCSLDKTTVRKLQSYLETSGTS
# Calb FLC – C. albicans growth modulation with fluconazole. C. albicans CaCi-2 (fluconazole-resistant clinical isolate) + fluconazole, Alamar Blue growth, 48 h. 0.57% of 300,000 active. growth inhibition, % (no concentration beside the values). AID 1979;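 active means most replicates above 75%; inconclusive means exactly half above 75%; inactive means most below 75%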;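 further: all wells also contain fluconazole at 8 µg/ml as a sub-toxic cotreatment; 0% = median of DMSO wells and 100% = median of geldanamycin control wells; wells of about 8 µL received 7.5 nL stock; the first replicate is given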
# Bfl-1 A1 inh – inhibitors of the anti-apoptotic protein A1, read as caspase activation | MEF A1-2A-BIM cells, Caspase-Glo 3/7 luminescence, 3 h; percent of clofoctol response, vehicle zero | caspase activation, % (concentration not given with the values) | 0.066% of 330,000 active | AID 2462;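 active means over half of replicate activation scores above 10%, or exactly half above 10 with the replicate mean above 10; inconclusive means replicate mean below 10 yet half the replicates above 10; inactive means over half of replicates below 10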;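 further: wells of about 30 µL received 50 nL stock; many hits fall short of the cut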
# Vif TR-FRET – HIV-1 Vif–A3G interaction blockers – biochemical, TR-FRET, GST-Vif 1-94, biotin-A3G peptide, dose response retest, primary screen (AID 1117319) | TR-FRET GST-Vif / biotin-A3G peptide binding; higher % means a stronger effect; test concentration not given here; strong numbers were not always called active | inhibition, %, or IC50 in µM where a hit was titrated | 0.57% of 260,000 active;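 active means above the screen mean plus three standard deviations and confirmed in dose response; inconclusive means results disagree or hit not tested in dose response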;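 further: Vif residues 1-94 fused to GST binding biotinylated APOBEC3G peptide 110-148; 0% = full assay without inhibitor and 100% = GST in place of GST-Vif; retest series ran down from 100 µM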
# rRNA inh HTS – inhibitors of bacterial rRNA selective over humanized ribosomes. E. coli WT GFP vs humanized-ribosome RFP mutants, fluorescence, 24 h; hits give low values; DMSO median 0, no signal -100. GFP signal change (wild-type ribosome), % (test concentration not listed). 1.6% of 350,000 active. AID 720706;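 active means significant combined selectivity score with lowered wild-type GFP, culture density cut under 30%, mutant RFP and density less affected; inactive means any of these conditions unmet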; further: one replicate is shown; some compounds called inactive have numbers as strong as hits
# Beta cell apopt – blocks beta cell apoptosis; INS-1E cytokine-induced death, ATP luminescence, 48 h; percent of positive-control rescue, neutral wells zero; protection from apoptosis, % (no concentration beside the values); 0.8% of 300,000 active;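 active means all replicates at 75% or more, or half of them and the mean; inconclusive means half reach 75% but not the mean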;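 further: 0% = cytokine-treated negative control wells and 100% = positive control rescue; higher means more ATP so stronger rescue from cytokine killing; wells of about 40 µL received 100 nL stock; the first replicate is given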
# rRNA inh HTS OD600 – also measured in rRNA inh HTS; calls as there; OD600 change, %; measured here: OD600 growth;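 optical density of the mix in the first replicate; 0 = DMSO median and -100 = no signal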
# rRNA inh HTS RFP – further read-out of rRNA inh HTS, marked with its call; RFP signal change, %; measured here: RFP humanized mutant strains;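 first replicate; 0 = DMSO median and -100 = no signal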
# * hit, by the source's call; ? = inconclusive; . = not tested or not shown; & = joins results of further samples.
SMILES,RanGTP-Impb inh,T cruzi repl,AF4-AF9 inh,Calb FLC,Bfl-1 A1 inh,Vif TR-FRET,rRNA inh HTS,rRNA inh HTS OD600,rRNA inh HTS RFP,Beta cell apopt
COc1ccc(-c2cc(N)n(S(=O)(=O)c3c(F)c(F)c(F)c(F)c3F)n2)cc1OC,-2.8,21.6,4.5,76.1*,0.2,7.2%&3.8%,-2.7,-5.6,-1.6,92.9*
O=C(Nc1ccon1)c1cccc(C(F)(F)F)c1,4.9,-3.7,.,16.5,0.9,30.7%,.,.,.,-0.8
Cc1cccc(C(=O)NC(=S)Nc2c(C)n(C)n(-c3ccccc3)c2=O)c1,4.3,-16.6,0.6,-0.9,2.1,.,-5.3,-8.4,-3.2,-0.5
O=C(COc1ccccc1)Nc1ccccc1N1CCN(c2ccccc2)CC1,-2.6,30.4,.,-3.4,-0.9,7.1%,.,.,.,-1.8
Cc1ccc(Cl)cc1NC(=O)C(NS(=O)(=O)c1cccs1)c1ccccc1 (stereo unspecified),-0.7,-3.6,1.1,0.9,-0.4,-1.5%,-12.8,-26.1,2.0,-2.6
COc1ccc([C@H]2CC(=O)C=C(c3ccc(C(=O)O)cc3)C2)cc1OC,.,.,0.1,.,0.7,.,0.8,0.8,-6.8,3.2
CCOc1ccc(S(=O)(=O)Nc2ccc(S(=O)(=O)N3CCOCC3)cc2)cc1,2.6,9.8,.,5.4,0.9,-0.4%,.,.,.,4.9
O=C(CCCn1c(=O)oc2ccccc21)N1CCN(c2ccc(F)cc2)CC1,3.2,2.2,-3.9,-3.0,-0.9,-1.0%,-17.4,-14.8,4.0,-3.5
CCOC(=O)C(C)n1cnc2c1c(=O)[nH]c(=O)n2C (stereo unspecified),-4.8,-7.2,.,3.8,0.9,-7.3%,.,.,.,-5.0
CC(C)Oc1cccc(C(=O)C2CCCN(Cc3cccn3-c3ccccn3)C2)c1 (stereo unspecified),5.2,11.5,13.6,14.4,0.4,0.8%,-3.2,-16.0,26.3,1.3
CC(=O)NCCc1ccc(S(=O)(=O)Nc2cccnc2)cc1,-1.4,1.4,.,-2.1,0.6,-2.1%,.,.,.,-1.4
CCOc1ccccc1N(C)S(=O)(=O)c1ccc2c(c1)CC(C)N2C(=O)C1CC1 (stereo unspecified),1.7,5.4,1.8,-5.4,-0.7,.,-17.6,-38.7,-4.0,6.2
COc1cccc(CNC(=O)CSc2nc3ccc(C)cc3[nH]2)c1,-0.8,-11.3,1.1,1.0,0.9,4.3%,-3.7,1.7,3.1,-7.3
COc1cccc(COC(=O)C2CC(=O)N(Cc3ccco3)C2)c1OC (stereo unspecified),2.4,-4.2,-0.8,1.3,0.2,.,.,.,.,-6.1
CCOP(=O)(OCC)c1nc(-c2cccc3ccccc23)oc1NCc1ccc(OC)cc1,6.5,57.4*,-1.2,-5.4,-0.5,-6.3%,-1.7,-0.5,-4.6,3.0
COc1cc(C)c(Cl)cc1S(=O)(=O)NCCCN1CCOCC1,-2.4,-12.6,.,0.7,-0.3,3.0%,.,.,.,-5.4
COc1ccccc1NC(=S)N1CCOCC1,?,-0.6,-1.6,28.3,-0.2,0.8%,0.4,-7.7,-8.9,-3.0
CCOC(=O)c1ccc2c(c1)nc(COc1ccc3ccccc3c1)n2CC,-2.0,.,.,31.6,0.4,-1.7%,.,.,.,-1.0
Cc1csc(SC(C)C(=O)NCC2CCCO2)n1 (stereo unspecified),2.3,2.5,-1.9,-4.4,-0.5,7.2%,7.3,6.9,-1.6,-0.2
CCCC(=O)Nc1ccc(S(=O)(=O)N2CCCC2)cc1,-0.4,-7.2,1.6,5.0,-0.6,4.6%,8.1,5.2,1.2,-0.4
Cc1nc(-c2ccc(F)cc2)c(CC(=O)N(C)CC(=O)Nc2ccccc2Cl)s1,0.1,-1.8,4.9,3.0,?,.,4.7,2.9,-0.6,.
Cc1[nH]c(C)c(S(=O)(=O)N2CCN(c3ccccc3F)CC2)c1C(=O)N1CCCC1,1.4,-12.7,-0.6,-4.5,1.8,-9.5%,4.3,8.6,-0.6,-5.8
O=S(=O)(c1ccc(F)cc1)n1ccc2cccnc21,-0.5,-11.2,.,-0.9,0.2,0.7%,.,.,.,-2.6
Cc1csc(SCC(=O)Nc2cccc(S(=O)(=O)N3CCOCC3)c2)n1,0.9,7.9,0.2,8.3,0.3,-4.6%,-12.5,-12.3,0.2,5.1
O=C(Nc1cccc(C(=O)O)c1)/C(=C/c1ccc2c(c1)OCO2)NC(=O)c1cccc(Br)c1,1.5,-4.1,-1.1,31.9,0.9,32.3%,-9.1,-10.5,-1.9,3.1

# (listing goes on)
SMILES,RanGTP-Impb inh,T cruzi repl,AF4-AF9 inh,Calb FLC,Bfl-1 A1 inh,Vif TR-FRET,rRNA inh HTS,rRNA inh HTS OD600,rRNA inh HTS RFP,Beta cell apopt
Cc1cccc(-c2nc(CS(=O)CC(=O)NC3CCCCC3)c(C)o2)c1 (stereo unspecified),5.2,-18.0,-7.3,0.2,0.3,.,-1.2,2.7,-3.3,-1.5
Cc1onc(-c2ccccc2)c1CNS(=O)(=O)c1cccc(Cl)c1,1.0,7.8,-2.0,-1.0,0.0,.,-18.4,-29.3,-3.2,-6.1
CCOC(=O)N/N=C\c1ccccc1OC/C=C/c1ccccc1,0.8,-9.7,-0.3,31.6,-0.4,.,-7.1,-12.8,-1.9,-1.2
O=C(Nc1ccc(S(=O)(=O)Nc2nccs2)cc1)/C(=C/c1ccccc1Cl)NC(=O)c1ccccc1,2.0,-0.9,-14.7,13.8,0.2,.,-29.9,-37.1,-5.8,-1.6
CC(NC(=O)CNC(=O)C1O[C@@H]2OC(C)(C)O[C@@H]2[C@H]2OC(C)(C)O[C@@H]12)C(=O)O (stereo partly specified),3.9,-19.1,-1.6,29.8,0.4,.,8.4,3.5,6.3,-6.1
CSc1ccccc1C(=O)Nc1ccccc1C(=O)NC(C)C,0.1,-4.6,-2.0,16.6,0.2,-9.4%,0.6,-14.4,0.5,2.5
CCOc1ccc(OCCCCNC(C)(C)C)cc1,3.4,-8.1,-0.1,-21.5,0.1,3.1%,1.8,-2.3,0.9,-13.6
Cc1n[nH]c(C)c1NC(=O)CSc1nnnn1-c1cccc(F)c1,.,.,0.7,.,0.8,.,12.9,11.4,4.4,-3.0
CC(C)C[C@H](NC(=O)[C@@H](Cc1ccccc1)n1c(=O)[nH]c2ccccc2c1=O)C(=O)N[C@@H](Cc1ccccc1)C(=O)O,0.9,-6.1,-2.1,-2.6,0.7,.,.,.,.,-2.4
Cc1ccc(CNC(=O)C2CCC(=O)N2Cc2ccc(F)cc2)cc1 (stereo unspecified),0.8,-3.2,-0.1,-8.9,0.5,2.4%,9.1,8.7,2.4,.
COc1ccc(OC)c(NC(=O)N2CCCc3ccccc32)c1,4.9,16.5,1.2,-37.2,-0.2,.,3.0,5.4,0.9,-0.5
O=C(Cn1nc(-c2ccccc2)ccc1=O)NCc1ccc(F)cc1,1.0,7.7,-2.4,-0.2,1.1,.,-0.1,3.5,-4.2,-1.5
C[C@@]12C(=O)N(Cc3ccc(Cl)cc3)CC(=O)N1[C@H]1c3ccccc3OC[C@@H]1[C@@H]2c1ccccc1,.,.,-1.4,.,-0.3,.,0.9,11.4,1.9,-2.0
COC(=O)c1ccc2c(c1)S(=O)(=O)NC(=NCc1ccco1)S2,-5.6,-14.1,.,0.5,0.6,22.4%,.,.,.,-0.5
CCc1occc(=O)c1Oc1cc(NN2CCCCC2)c([N+](=O)[O-])cc1[N+](=O)[O-],-3.1,-6.5,9.6,26.4,-0.8,.,-5.2,-2.3,-8.1,0.6
Cc1nn(C)c(C(=O)N/N=C/c2ccccc2)c1[N+](=O)[O-],2.5,-4.0,.,-0.2,0.8,-2.0%,.,.,.,8.9
CNC(=O)NC1CCCc2ccccc21 (stereo unspecified),4.4,-5.3,.,2.4,0.3,30.4%,.,.,.,-2.0
Cc1cc(SCc2cc(=O)n3ccsc3n2)nc2ccccc12,-1.2,-4.3,.,3.5,0.0,?,.,.,.,-3.5
Cc1ncsc1CCC(=O)N1CCCC(C(=O)c2ccc3c(c2)OCO3)C1 (stereo unspecified),4.4,4.3,-1.1,2.4,0.3,0.4%,2.8,-8.5,-10.3,4.8
N#CCN1CCC2(O)CCCCC2C1c1ccc2c(c1)OCO2 (stereo unspecified),2.1,2.6,0.4,3.3,1.8,2.9%,0.8,5.6,-1.4,-1.1
Cn1c(=O)[nH]c(=O)c2c1nc(NCCCn1ccnc1)n2Cc1ccc(F)cc1,-2.4,-4.1,.,5.8,0.2,-4.3%,.,.,.,-0.8
C=CCc1cccc2cc(C(=O)Nc3ccc(S(=O)(=O)Nc4nnc(CC)s4)cc3)c(=O)oc12,3.1,-4.3,-0.2,-2.9,-0.4,5.0%,15.5,18.4,-0.5,-4.4
O=S(=O)(c1cccc2nsnc12)N1CCN(Cc2ccccc2)CC1,-2.7,1.8,5.3,18.0,0.7,-8.2%,-1.3,-10.4,-0.9,-2.6
CC(C)CN1C(=O)NC(NC(=O)c2ccco2)(C(F)(F)F)C1=O (stereo unspecified),?,1.4,.,?,-0.8,4.1%,.,.,.,-6.1
C=CCN1C(=O)C(O)(CC(=O)c2c(C)n[nH]c2C)c2cc(Br)ccc21 (stereo unspecified),-1.1,-5.9,.,2.2,1.9,1.1%,.,.,.,-7.9

# Following part.
SMILES,RanGTP-Impb inh,T cruzi repl,AF4-AF9 inh,Calb FLC,Bfl-1 A1 inh,Vif TR-FRET,rRNA inh HTS,rRNA inh HTS OD600,rRNA inh HTS RFP,Beta cell apopt
FC(F)(Cl)c1nnc2ccc(Cl)nn12,5.2,-1.6,-0.3,-1.0,0.1,-3.6%,20.9,15.9,-1.9,33.8
COc1cnc(-c2ccccn2)nc1Sc1ccccc1,4.1,65.2*,2.2,18.1,-0.7,17.3%,-56.5,-82.0,-19.0,49.8
S=c1[nH]nc(COc2ccccc2)n1/N=C/c1ccc(Br)cc1,1.2,2.5,-0.6,-11.0,0.1,-0.8%,6.9,-12.2,10.7,-1.2
COc1ccc(S(=O)(=O)N2CCC(C(=O)Oc3ccc(C)cc3)CC2)cc1OC,4.8,-6.7,0.0,4.9,-0.3,-0.3%,4.3,1.9,6.3,-3.6
NNC(=O)c1cnn(-c2ccccc2)c1C(F)(F)F,-4.2,-4.8,-7.5,8.1,0.6,-9.5%,5.1,9.3,-0.7,-2.8
CC(=O)Nc1cccc2c1C(=O)N(c1cccc(C)c1)C2=O,-1.2,6.8,.,-2.6,-0.5,5.6%,.,.,.,-15.6
O=C(c1cc(-c2ccc(Cl)cc2)on1)N1CCCC1,5.2,-3.1,2.8,3.5,-3.7,8.2%,.,.,.,-8.5
CC(=O)c1cccc(CN2CCCC(CCC(=O)NCc3ccc(C)o3)C2)c1 (stereo unspecified),-1.3,?,2.7,-9.5,0.1,0.2%,16.4,15.9,4.0,-8.4

# The list is partial, so the mix of outcomes need not match the whole.
